Screening data: PubChem BioAssay, ICCB-Longwood Screening Facility, Harvard Medical School
LANA-nucl inh – inhibitors of KSHV LANA binding to nucleosomes | FITC-LANA1-23 / chicken nucleosome fluorescence polarization; stronger effect = lower value | z-score (no concentration beside the values) | 0.3% of 51,000 active;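 active means both repeat wells score below -2 in polarization z-score versus plate sample wells, excluding overly bright wells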;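 further: 100 nL library stock added to about 30 µL; numbers are from one replicate; some results filed as inactive read as strong as hits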
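Assay system: purified chicken nucleosomes with FITC-labelled LANA N-terminal peptide (1-23) / Probe or stimulus: 50 nM FITC-LANA1-23 probe / Compound dosing: pin-transferred compound, 100 nL / Times: compound with peptide–nucleosome mix 10–45 min at room temperature / Technique: fluorescence polarization, 480 nm excitation, 535 nm parallel and perpendicular emission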
BasE inh – BasE siderophore biosynthesis inhibition; purified BasE, fluorescence polarization binding displacement; inhibition, % (concentration not given with the values); 0.1% of 84,000 active; AID 485350;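 active means both replicates above 25% with normal brightness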;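 further: 0% = negative plate control signal and 100% = positive plate control signal; stock transfer was 100 nL into about 30 µL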
* = called active by the depositor; . = not tested or not shown; & = joins results of further samples. Only part of the results is shown; rates above refer to the full screens.

Start of the listing, in advance, 2 compounds:
Every second line gives: LANA-nucl inh, BasE inh
CC1(C)CCCC2=C1CC(C(=O)O)C(C(=O)O)C2 (configuration not stated)
    ., -1.8
N#CC(Sc1ccccc1)c1ccc(Cl)cc1 (configuration not stated)
    0.21, .

Main list, from the start:
Every second line gives: LANA-nucl inh, BasE inh
CC1(C)CCCC2=C1CC(C(=O)O)C(C(=O)O)C2 (configuration not stated)
    ., -1.8
N#CC(Sc1ccccc1)c1ccc(Cl)cc1 (configuration not stated)
    0.21, .
O=C(O)CC1NC(=O)c2ccc(Br)cc21 (configuration not stated)
    0.87, -2.2
S=C(Cc1ccc(CC(=S)N2CCOCC2)cc1)N1CCOCC1
    1.8, -1.2
CCN(CC(=O)Nc1ccc(Br)cc1)C(=O)c1nc2nc(C)cc(C)n2n1
    ., 1.8
O=C(CN1CCC(C(=O)c2ccc(F)cc2)CC1)Nc1ccccc1
    0.42, -2.2
CCOC(=O)c1c(C)n(C)c2ccc(OCC(O)CNCc3ccco3)cc12 (configuration not stated)
    -0.43, -4.9
CC1(C)CC2CC(C)(CN2/C=C/C#N)C1 (configuration not stated)
    ., 1.0
Cc1ccc(NC(=O)COC(=O)C2CC2C)c(S(=O)(=O)N2CCCCC2)c1 (configuration not stated)
    ., 0.0
CC1(C(=O)NCc2ccccc2)CCC(=O)N1CCC1=CCCCC1 (configuration not stated)
    1, 1.3
O=C(COc1ccc(-n2cnnn2)cc1)NC12CC3CC(CC(C3)C1)C2
    ., 4.0
OC(CNc1ccccn1)COc1ccc(OCC(O)CNc2ccccn2)cc1 (configuration not stated)
    0.22, -7.8
O=C1NCCN1c1ncc([N+](=O)[O-])s1
    -0.53, -1.4
CCNC(=O)CC1S/C(=N\N=C\c2ccc(C)o2)NC1=O (configuration not stated)
    -1.1, 1.1
Cc1coc(NC(=O)CSc2nc3c(c(C(F)(F)F)c2C#N)CC(c2ccccc2)CC3)n1 (configuration not stated)
    0.005, 0.8
O=C(/C=C/c1cn(-c2ccccc2)nc1-c1ccc2c(c1)OCCO2)NCCO
    ., -8.9
CN(CC(=O)Nc1ccc(OC(F)(F)F)cc1)C(=O)/C=C/c1ccco1
    ., 2.5
CC(Oc1cccc(Oc2ccccc2)c1)C(N)=O (configuration not stated)
    ., -1.1
COc1cc(C(=O)N2CCSC2=NCCc2ccccc2)ccc1OCc1c(C)noc1C
    ., -1.6
COc1cc2nc(C3CCC3)n(NC(=O)COc3ccccc3)c(=O)c2cc1OC
    -0.041, 0.0
CC1(C)O[C@@H]2CC3C4CCC5=CC(=O)C=C[C@]5(C)[C@@]4(F)[C@@H](O)C[C@]3(C)[C@]2(C(=O)CO)O1 (some centres not stated)
    0.57&-0.17, 1.0
COc1ccc(OC)c(C2=NOC(C(=O)Nc3c(C)n(C)n(-c4ccccc4)c3=O)C2)c1 (configuration not stated)
    -1.6, -0.6
COc1ccc(-c2coc3cc(O)ccc3c2=O)cc1
    -0.65, 1.1
COc1ccc(C(O)c2cccs2)cc1OC (configuration not stated)
    ., 3.0
O=c1oc2cc(O)ccc2c2c1CCCC2
    0.78, 0.6
O=C1CNC(=O)/C1=C\c1ccc(Br)cc1
    -0.27, 1.5
COCCNC(=O)c1ccc(Cl)cc1
    0.64, 1.2
C=CCC1(CC=C)CCCN1
    0.29, -3.7
Cc1ccc(NC(=O)CCc2c(C)[nH]c(=O)c(C#N)c2C)cc1
    ., -0.6
CC1=C(C)CC2C(=O)N(Cc3ccccc3)C(=O)C2C1 (configuration not stated)
    -0.48, -0.4

The listing continues.
Every second line gives: LANA-nucl inh, BasE inh
Cc1cc(C(=O)COc2ccc3ccc(=O)oc3c2)c(C)n1-c1nccs1
    ., 0.3
CC1=CCC23CC1C(=O)C=C2CC(C)(C)CC3=O (configuration not stated)
    -0.78, -0.3
Cc1ccc(C)c(-c2nnc(NC(=O)c3cccc(S(C)(=O)=O)c3)o2)c1
    0.024, -0.1
C=CCOc1cccc(C(=O)Nc2ccccc2)c1
    2.4, -7.1
Fc1cccc(N=Cc2ccc3c(c2)OCO3)c1
    ., -4.6
O=C(O)CCc1ccc(-c2ccccc2)n1-c1ccccc1O
    -0.15, -2.2
Cc1ccc(-c2ncc(Cl)cc2-c2ccc(S(C)(=O)=O)cc2)cn1
    2, .
O=c1c(Cl)c(Cl)cnn1-c1ccc(C(F)(F)F)cn1
    ., -0.3
COc1ccc(OC)c(Nc2nc3nonc3n3nnnc23)c1
    -0.26, -1.7
O=C(/C=C/c1ccccc1)Oc1ccc(-c2nnco2)cc1
    ., -4.9
CCCC(C)C(=O)Nc1cc(C)ccn1 (configuration not stated)
    -0.95, 0.7
COc1ccc(C2c3c(n(C)c(=O)n(C)c3=O)N=C3c4ccccc4C(=O)C32)cc1 (configuration not stated)
    ., -1.0
O=C1S/C(=C\c2ccccc2)C(=O)N1CCn1cnnn1
    ., 1.4
O=S(=O)(c1ccc(F)cc1)N1CC=C(c2ccccc2)CC1
    -0.096, .
Cc1ccc(OCC(O)CN)cc1 (configuration not stated)
    -0.68, 1.0
COC(=O)CCSc1ncnc2sc3c(c12)CCC3
    ., -5.2
CN1Cc2ccc(CN3C(=O)c4ccccc4C3=O)cc2NC1=O
    -0.27, 0.4
COc1ccc(OCc2nnc(SCC(=O)N(C3CCCCC3)C3CCCCC3)o2)cc1
    -0.17, 0.6
COCCNC(=O)c1cccc2c1-c1ccccc1C2=O
    -0.27, 0.8
CCN(CC)CCn1c2c(c(SCC(=O)Nc3cc(C)on3)nc1=O)CCCC2
    -1.2, -0.1
C(=N\N1CCOCC1)/c1ccc2c(c1)OCCO2
    ., 0.6
O=C(CCn1nc(-c2ccc(Cl)cc2)c2ccccc2c1=O)NCCN1CCOCC1
    ., 0.4
Cc1cccc(N(CC(=O)O)S(C)(=O)=O)c1
    0.32, -0.8
NC(=O)COC(=O)CCc1nc2ccccc2n1-c1ccccc1
    ., -2.5
O=C(CNc1ccc(Br)cc1F)NCc1ccco1
    ., 1.2
COc1ccc(Nc2ccc(S(=O)(=O)N3CCCC3)cn2)cc1O
    ., 1.0
Cc1ccc2oc(-c3ccccc3C)nc2c1
    -0.28, -1.4
CN1C(=O)S/C(=C/c2ccc(-c3ccc(C(=O)O)c(Cl)c3)o2)C1=O
    -0.35, 3.4
O=C(CN1CCC(n2nnc3cc(F)ccc32)CC1)NCCc1ccccc1
    -0.86, 0.7
O=C(CSc1nc(O)cc(=O)[nH]1)N1c2ccccc2Sc2ccccc21
    ., 2.2

A draw from above in order of molar mass, rising.
Every second line gives: LANA-nucl inh, BasE inh
Cc1ccc2oc(-c3ccccc3C)nc2c1
    -0.28, -1.4
Cc1cccc(N(CC(=O)O)S(C)(=O)=O)c1
    0.32, -0.8
C=CCOc1cccc(C(=O)Nc2ccccc2)c1
    2.4, -7.1
O=C(/C=C/c1ccccc1)Oc1ccc(-c2nnco2)cc1
    ., -4.9
O=C(O)CCc1ccc(-c2ccccc2)n1-c1ccccc1O
    -0.15, -2.2
O=c1c(Cl)c(Cl)cnn1-c1ccc(C(F)(F)F)cn1
    ., -0.3
COc1ccc(OC)c(Nc2nc3nonc3n3nnnc23)c1
    -0.26, -1.7

(cont.)
Every second line gives: LANA-nucl inh, BasE inh
COc1ccccc1NC(=O)N(Cc1nc(-c2ccc(Cl)cc2)no1)C(C)C
    -0.93, 0.1
COC(=O)C1CCCN1C(=O)c1ccccc1 (configuration not stated)
    1, 0.5
O=C(Cc1ncc(C(F)(F)F)cc1Cl)N1CCN(c2ccc(F)cc2)CC1
    0.7, .
COC(=O)c1c(N)sc2c1CCCC2
    -0.21, -1.0
Cn1c(=O)cc(OCCCC(=O)N2CCCCC2)c2ccccc21
    -1.2, 0.3
COc1cc(NC2c3ccccc3C(=O)N2Cc2ccco2)cc(OC)c1OC (configuration not stated)
    0.38, 1.2
O=C1Nc2ccccc2SC1CC(=O)N1CCN(Cc2ccccc2F)CC1 (configuration not stated)
    ., -1.6
O=C(Cc1n[nH]c(=O)c2ccccc12)N1CCc2ccccc2C1
    ., -6.4
O=C(NCCC(=O)N1CCCCCC1)c1ccccc1Cl
    ., -2.1
Cc1ccc2nsnc2c1NC(=O)Cc1ccc(Cl)cc1
    ., 1.4
CCCCC[C@H](O)/C=C/[C@H]1[C@H](O)CC(=O)[C@@H]1CCCCCCC(=O)O
    -0.48&-0.19&-0.41&0.49, -1.9&-1.7
Cc1ccc(OCC(=O)NC(=S)N2CCOCC2)cc1
    -0.1, 0.1
CC(=O)NC(CC(=O)Nc1ccc2c(c1)OCO2)c1ccccc1 (configuration not stated)
    ., -1.0
CCSc1nc(Cl)c2ccccc2n1
    0.38, -1.5
CCOc1cccc(/C=N/n2c(C)n[nH]c2=S)c1
    -0.55, 0.2
CCCCn1c(SC=O)nc2ccccc2c1=O
    ., 1.7
CCc1ccccc1NC(=O)CCOc1ccccc1
    0.47, 2.9
O=C(CN1C(=O)CSc2ccc(C(F)(F)F)cc21)Nc1cccc(C(F)(F)F)c1
    ., -1.5
COc1cccc(-c2cc(C(=O)N3CCN(c4ccccc4)CC3)on2)c1
    -0.97, 1.1
O=C(CCCOc1ccc(Cl)cc1Cl)Nc1c[nH]c(=O)[nH]c1=O
    0.15, 0.9
Cc1cc(C(=O)COC(=O)CSc2nnc(NC3CCCCC3)s2)c(C)n1C1CC1
    ., 0.1
CCOC(=O)[C@H](CCc1ccccc1)N[C@H]1CCc2ccccc2N(CC(=O)O)C1=O
    0.2&1&0.29, 3.6
C=CCn1c(C)nnc1SCC(=O)N1CCN(S(=O)(=O)c2ccc3ccccc3c2)CC1
    ., 4.0
CC1=CC(C)(C)N(CC(=O)c2ccccc2)c2ccc(C)cc21
    0.26, 0.6
CN1C(=O)C2C3c4ccccc4C(c4ccccc43)C2C1=O (configuration not stated)
    -0.43, 1.2
COC(=O)c1ccccc1S(=O)(=O)NC(Cc1ccccc1)C(=O)OC (configuration not stated)
    ., 0.3
O=S(=O)(Nc1ccc(Cl)cc1)c1ccc2oc(=S)[nH]c2c1
    ., -0.4
O=C(CCN1C(=O)/C(=C\c2ccco2)SC1=S)N1CCCC1
    1.1, -1.1
CC1(C)CC(=O)C=C(NNS(=O)(=O)c2ccccc2)C1
    -0.6, 2.3
N#Cc1c(N)nc2sc3c(O)cc(=O)[nH]c3c2c1-c1ccc(Cl)cc1
    0.5, 0.5

Continuation:
Every second line gives: LANA-nucl inh, BasE inh
CCN1CCc2c(sc3[nH]c(=S)n(-c4cccc(OC)c4)c(=O)c23)C1
    ., -0.7
O=S(=O)(c1cccc(C(F)(F)F)c1)N1CC=C(c2ccccc2)CC1
    0.056, .
O=S(=O)(N1CCCCC1)N1CCN(c2ccc(F)cc2)CC1
    1.3, -0.6
CC1(C)CC2CC(C)(CN2CC(=O)Nc2ccc3c(c2)OCCO3)C1 (configuration not stated)
    ., 0.9
Cc1occc1C(=O)CC#N
    ., 3.8
C[C@H](NS(=O)(=O)/C=C/c1ccccc1)C(=O)OC1CCOC1=O (some centres not stated)
    ., -0.8
Cc1cccc(OCc2nnc(SCC(=O)C34CC5CC(CC(C5)C3)C4)o2)c1
    ., 1.5
COCC(C)Nc1ncnc2sc3c(c12)CCC3 (configuration not stated)
    ., 1.1
O=C(O)c1ccccc1NCc1cccs1
    -0.49, 1.6
O=C(NCc1ccccn1)c1ccc2c(c1)N(Cc1ccccc1)C(=O)c1ccccc1S2=O (configuration not stated)
    -0.066, -3.6
COc1ccc(N2C(=O)CC(N(C(C)=O)c3ccc(OC)cc3)C2=O)cc1 (configuration not stated)
    ., 1.9
CC12CC3(C)CC(C)(C1)CC(C(=O)NC(=S)NC(C)(C)C)(C2)C3
    ., 0.8
Clc1cnc(-n2cccc2)c(Br)c1
    -0.67, .
O=c1[nH]c(=S)[nH]c(O)c1C=Nc1ccc(Br)cc1
    0.14, -3.0
CC(CCc1ccccc1)NC(=O)COc1nc2ccccc2nc1N1CCOCC1 (configuration not stated)
    ., -3.6
Cn1c(CC#N)[n+](C)c2ccccc21
    ., 2.4
Cc1cc(C)c(N=C(NC#N)Nc2c(C)cc(C)cc2C)c(C)c1
    ., 0.2
O=C(COc1ccc2ccccc2c1Br)NCc1ccco1
    -0.78, 4.0
Cc1cc(/C=C/C(=O)N2CCN(S(=O)(=O)c3cccs3)CC2)c(C)n1-c1ccnn1C(C)C
    ., -0.7
Cc1cc(C)c2c(=O)[nH]c(=O)n(Cc3ccccc3)c2n1
    ., -4.3
O=S(=O)(CCC(F)(Br)C(F)(F)Br)c1ccccc1 (configuration not stated)
    0.58, .
O=C1CNCC(=O)N1CCc1ccccc1
    -1.1, -3.6
Cc1ccc(N2CC(=O)N(C)C2=S)cc1
    0.77, 0.2
O=C1CCC(C(=O)OCC(=O)Nc2ccc3c(c2)OCO3)=NN1
    ., -0.9
S=C(NCc1cccnc1)Nc1ccccc1
    ., -0.2
Cn1cnc2c(=O)oc3ccc(S(=O)(=O)NCCC4=CCCCC4)cc3c21
    0.23, 1.3
CCOC(=O)N1CCC(NC(=O)C2CCCCC2)CC1
    -0.79, .
